# VCAM-1 up = enhancers of VCAM-1 display on endothelial cells, cell-based, plate reader, pooled HUVEC, TNFa stimulus (AID 455); HUVEC TNFa-induced VCAM-1 immunofluorescence, plate reader; numbers were filed only for top-ranked candidate wells; augmentation, % at 5 µM; 10,000 tested, 0.2% active;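 active = a compound raising TNF-alpha-driven VCAM-1 surface staining, with its hit status upheld on visual or statistical review; inactive = the rest, including hits rejected on review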;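 also: 0% = TNFa with vehicle and 100% = strongest image-checked hit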
# 26S disassembly = blocks ATP-dependent breakdown of the yeast 26S proteasome. AID 751. anti-FLAG beads, GFP-proteasome disassembly, flow cytometry. inhibition of disassembly, % (no concentration beside the values). 24,000 tested, 0.2% active;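 active = above 40%; inconclusive = likely self-fluorescent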;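 also: plate controls were ATP control with full disassembly for no effect and ATP-gamma-S intact proteasomes for full effect; higher percent means more bead fluorescence retained so stronger block of disassembly; stock transfer was 100 nL into about 10 µL; wells with too few beads may also be inconclusive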
# * = called active by the depositor; i = inactive; u = inconclusive; x = no result given. This is a subset; rates above refer to the full screens.
SMILES,VCAM-1 up,26S disassembly
CSCCC(NC(=O)C1CCC(C)CC1)C(=O)NCc1ccco1 (stereo not given),x,-1.5
Cc1nnc(SCCn2c(N3CCC(Cc4ccccc4)CC3)nc3c2c(=O)[nH]c(=O)n3C)s1,i,2.7
CCOC(=O)CSc1nnc(CNC(=O)c2ccc(OC)c(OC)c2)n1C,i,-0.3
Cc1cc(-c2ccccc2N)n[nH]1,x,-1.4
O=C(O)c1ccc2c(c1)C(=O)N(C(Cc1ccc(O)cc1)C(=O)O)C2=O (stereo not given),x,-8.9
C=CCOc1ccc(C2C(C(=O)c3ccco3)=C(O)C(=O)N2Cc2cccnc2)cc1 (stereo not given),i,-1.3
CCCCCOc1ccc(C2NC(=O)NC2=O)cc1 (stereo not given),i,-0.7
CCOc1ccc2nc(N3CCC(C(=O)N4CCN(c5ccccn5)CC4)CC3)sc2c1,x,0.6
CCOc1cc(C)c(Cl)cc1S(=O)(=O)N(C)C,i,-0.3
Cc1ccc(-n2nnc3c(SCC(=O)NCc4ccco4)ncnc32)cc1,x,0.0
O=C(C1CC(c2ccc(F)cc2)=NO1)N1CCN(c2ccccc2)CC1 (stereo not given),x,4.8
COc1ccc(NC(=O)CN(c2cc(C)cc(C)c2)S(=O)(=O)c2c(C)n[nH]c2C)cc1,x,-0.1
Cc1ccc2nc(NC3=NCN(Cc4ccco4)CN3)nc(C)c2c1,x,3.7
Cc1onc(-c2ccccc2)c1C(=O)Nc1ccccc1C#N,x,-0.4
CCCCNC(=O)CC1N=C2c3ccccc3N=C(SCC(=O)Nc3cccc(C)c3)N2C1=O (stereo not given),x,7.9
Cc1ccc2c(C)nc(Nc3nc(CSc4nnnn4-c4ccccc4)cc(=O)[nH]3)nc2c1,i,-0.4
N#CC(C(=O)Nc1ccc(Cl)c(Cl)c1)=C1Nc2ccccc2N1,i,-0.1
CCN1CCN(Cc2ccc(NC(=O)Nc3cccs3)cc2)CC1,x,0.2
Cc1nc(N2CCN(C)CC2)c2sc(=S)n(-c3ccccc3)c2n1,x,2.2
CCOC(=O)N1CCN(S(=O)(=O)c2cc(OCC)ccc2OCC)CC1,x,-1.6
Fc1ccccc1C(c1nnnn1Cc1ccc2c(c1)OCO2)N1CCN(Cc2ccccc2)CC1 (stereo not given),i,-0.7
O=C(Cc1cccs1)Nc1ccccc1C(=O)O,i,-1.5
CCCc1nc2ccccc2c(=O)n1NC(=O)c1c(O)c2cccc3c2n(c1=O)CCC3,i,-0.6
CC(NC(=O)c1cc(-c2cccs2)on1)c1ccccc1 (stereo not given),x,0.8
Cc1ccc(Cn2nc(C)c(NC(=O)c3noc4c3CCCCC4)c2C)cc1,x,1.1
CCC(C)NC(=O)c1ccccc1NC(=O)C(C)N(c1ccccc1)S(C)(=O)=O (stereo not given),i,-0.8
COc1cc2c(cc1OC)C(C(=O)N1CCCCC1)C(c1ccccc1F)N(C)C2=O (stereo not given),x,-0.6
CC1CCN(C(=O)CN2C(=O)C(=O)c3ccccc32)CC1,x,-0.5
Cc1cc(C)n(C2=NS(=O)(=O)c3ccccc32)n1,i,0.3
COCCn1c(=NC(=O)CSCC(=O)NC2CCCCC2)sc2cc(OC)ccc21,x,0.1
O=C(CN1C(=O)CSc2ncccc21)N1CCOCC1,x,-0.3
Cc1ccc(CNC(=O)CCc2c(C)nc3ncnn3c2C)cc1,x,-1.0
CCOC(=O)c1cnc(-n2nc(C)cc2C)nc1NC(C)c1ccccc1 (stereo not given),i,-0.5
C=CCN(c1ccccc1)S(=O)(=O)c1ccc2c(c1)oc(=O)n2C,x,0.2
CC(C)(C)c1ccc(C(=O)CCCSC2=C(C#N)C(c3ccco3)C3=C(CCCC3=O)N2)cc1 (stereo not given),x,-3.5
O=C(CSc1nnc(-c2ccncc2)o1)Oc1ccccc1,i,-1.3
O=C(Nc1c(C(=O)N2CCCCC2)cnn1-c1ccccc1)c1ccccc1,x,-0.6
CC1CC(=O)N(CC(=O)Nc2ccc3c(c2)OCO3)c2ccccc2S1 (stereo not given),x,1.5
O=C(Nc1ccccc1)N(O)c1ccc(Cl)cc1,i,-0.6
O=C1OCc2cc(NC(=O)C3CCCO3)ccc21 (stereo not given),i,0.2
CC(C)(C)C1=Nn2c(nnc2-c2n[nH]c3c2CCC3)SC1,i,-1.7
COC(=O)CN1C(=O)C(O)(CC(=O)c2ccc(Cl)cc2)c2ccccc21 (stereo not given),i,-3.2
NC(N)=NS(=O)(=O)c1ccc(N)cc1,i,0.1
O=C(Cn1cnc2c(oc3ccccc32)c1=O)NCc1ccco1,x,0.1
Cc1ccccc1Cc1c(C)nc2c(C(=O)N3CCN(Cc4ccc5c(c4)OCO5)CC3)cnn2c1C,i,4.0
CCCS(=O)(=O)N1CCC(C(=O)NCc2ccco2)CC1,x,1.7
CCCCCNC(=O)CCn1c(=O)oc2ccccc21,x,0.3
CCOc1ccccc1C1N(c2ccc(F)cc2)C(=O)C2CCCN21 (stereo not given),i,6.8

# Some of these compounds in order of count of non-hydrogen atoms, ascending.
SMILES,VCAM-1 up,26S disassembly
NC(N)=NS(=O)(=O)c1ccc(N)cc1,i,0.1
O=C1OCc2cc(NC(=O)C3CCCO3)ccc21 (stereo not given),i,0.2
CCCS(=O)(=O)N1CCC(C(=O)NCc2ccco2)CC1,x,1.7
CCOc1ccccc1C1N(c2ccc(F)cc2)C(=O)C2CCCN21 (stereo not given),i,6.8
CC1CC(=O)N(CC(=O)Nc2ccc3c(c2)OCO3)c2ccccc2S1 (stereo not given),x,1.5

# New compounds follow:
SMILES,VCAM-1 up,26S disassembly
C=CCNC(=O)C1CC(=O)N(c2ccc(C)cc2)C1 (stereo not given),x,-1.3
CCCCOc1ccc(-c2nnn(C(C)(C)C(=O)OC)n2)cc1,i,-3.6
COCc1nnc(NC(=O)c2ccc(S(=O)(=O)N(C)C3CCCCC3)cc2)o1,x,0.6
Cc1[nH]nc2c1C(c1ccccc1F)NC2=O (stereo not given),x,-1.6
CCCCN(CC)Cc1ccc(CNC(=O)Nc2ccc(OC)cc2OC)o1,x,-1.1
CCn1c(=O)cc(OCC(=O)N2CCN(c3cccc(C(F)(F)F)c3)CC2)c2ccccc21,x,-1.4
CCOC(=O)N1CCN(CC(O)COc2ccccc2C(C)CC)CC1 (stereo not given),i,-0.1
CCCc1ccc(S(=O)(=O)NCCc2ccncc2)cc1,i,-0.8
CCOc1cc(C2CC(=O)NC3=C2C(=O)C(C(=O)OC)C(C)C3)cc(Br)c1O (stereo not given),x,1.4
COc1cccc(CNC(=O)C2CCCN(c3nn4c(=O)cc(C)nc4s3)C2)c1 (stereo not given),x,0.2
N#CC1=C2SCC(O)(c3ccccc3)N2C(=O)CC1c1cccs1 (stereo not given),x,-0.8
COc1cc(/C=C/C(=O)CC(=O)/C=C/c2ccc(O)c(OC)c2)ccc1O,i,u
CN(Cc1ccccc1)C(=O)CCNC(=O)Cn1cnc2ccccc2c1=O,x,-0.5
COCCCNC(=O)c1ccc2nc3ccccc3c(=O)n2c1,x,0.6
O=C(c1ccc(CS(=O)(=O)c2ccccc2)o1)N1CCN(c2ncccn2)CC1,x,-0.9
COc1ccc2cc(C(=O)NCc3ccco3)c(=Nc3ccc(C(=O)O)cc3)oc2c1,i,0.1
Cn1c(C(=O)N2CCN(c3ccccc3F)CC2)cc2c(=O)n(C)c3ccccc3c21,x,-4.2
CC1CC(C)CN(C(=O)c2cn(C)c3ccc(S(=O)(=O)N(C)C)cc3c2=O)C1 (stereo not given),x,0.7
Cn1c(=O)oc2cc(S(=O)(=O)N3CCCC(C(=O)Nc4ccc5c(c4)OCCO5)C3)ccc21 (stereo not given),x,2.2
O=C(O)CC1NC(=O)N(c2ccccc2)C1=O (stereo not given),i,0.6
Cc1noc(/C=C/N(C)C)c1S(=O)(=O)N1CCC(C(=O)O)CC1,x,0.3
CS(=O)(=O)c1nc(-c2ccco2)cc(C(F)(F)F)n1,x,5.8
N#CC1=C2SCN(c3ccccc3)CN2C(=O)CC1c1ccccc1Cl (stereo not given),x,-1.6
COC(=O)c1ccc(NC(=O)CCc2c(C)nc3ncnn3c2C)cc1,x,0.3
COc1ccc(NC(=O)Nc2cc(C)ccc2OC)cc1,i,-3.6
CC1CCN(CC(O)COc2cccc(F)c2)CC1 (stereo not given),x,0.9
COc1ccc(NC(=O)C2CCCN2C(=O)OCc2ccccc2)c(OC)c1 (stereo not given),x,-1.2
CCOCCCNC(=O)C(c1ccc(Cl)cc1)N1CCC2(CC1)OCCO2 (stereo not given),x,0.6
Cc1ccccc1Cc1c(C)nc2ncnn2c1C,x,-5.6
CCc1c(C(=O)NCCc2ccc(OC)c(OC)c2)[nH]c(C)c1C(C)=O,i,0.3
Cc1ccc(-n2cc(-c3ccccc3)[nH]c2=O)cc1F,x,9.6
CCCn1c(=S)[nH]c2cc(C(=O)N3CCN(c4ccccc4OC)CC3)ccc2c1=O,x,0.3
CC1(C)N=C(c2cccc(F)c2)C(=O)N1,x,-1.3
Cn1c(=O)c2[nH]c(NCC3CCCO3)nc2n(-c2ccccc2)c1=O (stereo not given),i,-0.1
COc1ccc(-c2cc3c(=O)n(CC(=O)NC4CCN(Cc5ccccc5)CC4)ncn3n2)cc1,i,0.0
O=C1CC(c2ccc3c(c2)OCO3)c2cc3c(cc2N1)OCO3 (stereo not given),x,0.0

# The last six entries of the part before are carried over, then new ones follow:
SMILES,VCAM-1 up,26S disassembly
Cc1ccc(-n2cc(-c3ccccc3)[nH]c2=O)cc1F,x,9.6
CCCn1c(=S)[nH]c2cc(C(=O)N3CCN(c4ccccc4OC)CC3)ccc2c1=O,x,0.3
CC1(C)N=C(c2cccc(F)c2)C(=O)N1,x,-1.3
Cn1c(=O)c2[nH]c(NCC3CCCO3)nc2n(-c2ccccc2)c1=O (stereo not given),i,-0.1
COc1ccc(-c2cc3c(=O)n(CC(=O)NC4CCN(Cc5ccccc5)CC4)ncn3n2)cc1,i,0.0
O=C1CC(c2ccc3c(c2)OCO3)c2cc3c(cc2N1)OCO3 (stereo not given),x,0.0
COc1ccc(S(=O)(=O)N2CCCC2C(=O)Nc2ccc(O)cc2)cc1 (stereo not given),i,0.0
COc1cccc(-c2nc(CS(=O)(=O)CC(=O)N3CCN(c4ccccn4)CC3)c(C)o2)c1,i,0.7
Cc1noc(/C=C/N(C)C)c1S(=O)(=O)N1CCc2ccccc21,i,6.7
COC(=O)CN1C(=O)C(O)(CC(=O)c2cccc(Br)c2)c2ccccc21 (stereo not given),x,1.3
C=CCN1C(=O)CSc2ccc(C(=O)OCC)cc21,x,0.9
O=C(NCCN1CCCC1)c1cc(-c2ccncc2)nc2ccc(S(=O)(=O)N3CCOCC3)cc12,x,-0.4
CC(OC(=O)C1CC=CCC1C(N)=O)C(Cl)=C(Cl)Cl (stereo not given),i,-0.4
COC1=CC(=O)CC(C)C12Oc1c(Cl)c(OC)cc(OC)c1C2=O (stereo not given),i,-0.8
COc1ccc(N2C(N)=NC(N)=NC23CCCC3)cc1,x,0.1
CCCC(=O)Nc1cc(-c2cn3cccnc3n2)ccc1OC,x,-3.0
O=C1CC(c2ccc(S(=O)(=O)N3CCN(c4ccccc4)CC3)cc2)CN1 (stereo not given),i,-0.8
CCOc1ccc(-n2c(SC(C)C(=O)OC)nc3c(c2=O)SCC3)cc1 (stereo not given),x,-0.7
CCOC(=O)C1CCCN(Cc2nc(N)nc(Nc3ccccc3OC)n2)C1 (stereo not given),x,1.0
O=C1CC(c2ccccc2)CN1S(=O)(=O)c1ccccc1 (stereo not given),x,0.9
O=C(Cn1ncc2c(=O)oc3ccccc3c21)NCCC1=CCCCC1,x,0.1
COc1ccc(OCCC(=O)NCc2ccccc2)cc1,i,-0.8
COc1cccc(C2C=C(c3cccs3)Nc3ncnn32)c1OC (stereo not given),x,0.7
CCOC(=O)c1c(C)oc2ccc(O)c(CN(C)C)c12,i,-1.4
Cc1ccccc1C(=O)N1CCC(C(=O)Nc2ccc(S(=O)(=O)N3CCCC3)cc2)CC1,i,1.1
O=C(CCS(=O)(=O)c1cccc2nsnc12)N1CCN(C(=O)c2ccco2)CC1,x,0.1
Cn1c(=O)oc2cc(S(=O)(=O)NCCC(=O)Nc3ccc4c(c3)OCCO4)ccc21,x,0.2
CN(C)S(=O)(=O)Nc1ccc(Br)cc1F,i,3.3
COc1ccc(C)cc1NC(=O)CSc1nnnn1Cc1ccccc1,i,-0.3
C=CCn1c(SCn2nnc3ccccc3c2=O)nnc1-c1ccc(Br)cc1,i,16
O=C(CCn1cccc1)N1CCc2ccccc21,i,1.9
O=C1C2CC=C(Cl)CC2C(=O)N1CC1Cc2ccccc2CO1 (stereo not given),x,-0.2
Cc1cc(NC(=O)c2noc3c2CCc2ccccc2-3)n(-c2ccccc2)n1,x,0.3
Cc1ccc2[nH]c(=O)c3cc(C(=O)N(C)Cc4ccco4)sc3c2c1,x,-0.2
COc1cc(C(=O)Nc2cccc(-c3nncn3C)c2)cc(OC)c1OC,i,-1.2
Cc1cccc2cc(CN(CCCO)C(=O)Nc3ccc(Cl)cc3)c(=O)[nH]c12,i,2.2
O=C1c2ccccc2C(=O)N1CCCCN1CCN(CCCCN2C(=O)c3ccccc3C2=O)CC1,i,1.4
Cc1nnc2sc(-c3cccc(NC(=O)c4cccnc4)c3)nn12,i,-0.1
O=C(CN1CCN(Cc2ccccc2)CC1)NCC1COc2ccccc2O1 (stereo not given),i,4.4
COc1cccc(NC(=O)NC2(C(F)(F)F)Oc3ccccc3O2)c1,i,-0.7

# Bioassay records (PubChem BioAssay)
